KCNQ2 inh: KCNQ2 potassium channel inhibitors, primary screen, cell-based, CHO-K1, FluxOR thallium flux, B-score (AID 2156); O88943; 20 min; hits give low values; only compounds with negative scores are shown here; some inactives read as strong as hits; 1.1% of 310,000 active; B-score at 10 µM;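 active = fluorescence ratio B-score at most minus 3 library SDs, with starting brightness B-score within 2 library SDs, cut at about -5.5 in these data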
Target sequence (O88943 whole entry, looked up): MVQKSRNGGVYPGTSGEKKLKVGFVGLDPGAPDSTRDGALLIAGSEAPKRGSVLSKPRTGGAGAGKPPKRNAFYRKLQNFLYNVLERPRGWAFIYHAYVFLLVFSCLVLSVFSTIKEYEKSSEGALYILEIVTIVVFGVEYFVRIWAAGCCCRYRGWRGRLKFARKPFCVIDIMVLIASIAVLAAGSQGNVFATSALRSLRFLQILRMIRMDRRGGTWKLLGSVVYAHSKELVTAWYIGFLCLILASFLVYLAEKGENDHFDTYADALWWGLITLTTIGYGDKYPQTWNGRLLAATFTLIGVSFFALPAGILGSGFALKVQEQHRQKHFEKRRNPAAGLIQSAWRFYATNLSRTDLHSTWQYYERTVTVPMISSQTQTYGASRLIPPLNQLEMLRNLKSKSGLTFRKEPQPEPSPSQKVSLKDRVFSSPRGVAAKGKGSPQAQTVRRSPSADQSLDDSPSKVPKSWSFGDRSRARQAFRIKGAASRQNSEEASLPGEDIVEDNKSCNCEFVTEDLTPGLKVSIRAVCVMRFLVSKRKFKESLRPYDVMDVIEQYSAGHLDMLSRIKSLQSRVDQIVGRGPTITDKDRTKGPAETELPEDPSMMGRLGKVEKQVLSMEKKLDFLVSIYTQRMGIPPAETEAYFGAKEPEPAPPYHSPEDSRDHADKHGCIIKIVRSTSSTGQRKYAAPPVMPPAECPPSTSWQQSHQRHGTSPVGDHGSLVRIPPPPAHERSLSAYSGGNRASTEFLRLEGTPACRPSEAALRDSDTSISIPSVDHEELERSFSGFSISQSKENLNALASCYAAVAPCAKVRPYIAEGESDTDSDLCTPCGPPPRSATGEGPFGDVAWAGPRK
KCNQ2 inh baseline: also measured in KCNQ2 inh; calls as there; B-score; measured here: initial fluorescence intensity artifact check;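 brightness before thallium and not channel activity; 0 = typical well and far values either way flag optical interference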
An asterisk follows results filed as active; i = inactive. Not all compounds are listed, so the mix of outcomes need not match the whole.

Start of the listing, in advance:
SMILES | KCNQ2 inh | KCNQ2 inh baseline
NS(=O)(=O)c1cccc(NC(=O)CCS(=O)(=O)c2ccc(Cl)cc2)c1 | i | -1.6
O=C(CCc1nnc(CCCc2ccccc2)o1)NCCc1ccccc1 | i | 1.6

The whole of this part, previewed entries included:
SMILES | KCNQ2 inh | KCNQ2 inh baseline
NS(=O)(=O)c1cccc(NC(=O)CCS(=O)(=O)c2ccc(Cl)cc2)c1 | i | -1.6
O=C(CCc1nnc(CCCc2ccccc2)o1)NCCc1ccccc1 | i | 1.6
CN1CCN(C(=O)c2ccccc2NC(=O)c2ccccc2Br)CC1 | i | 1.3
O=C(CCn1nnc2ccccc21)N1CCN(c2ccccc2)CC1 | i | -1.6
O=C(CSc1nnnn1C1CCCC1)Nc1ccccc1F | i | 2.1
CC(C)OP(=O)(OC(C)C)C(Nc1ccccc1)c1ccccc1C(F)(F)F (stereo not drawn) | i | 1.6
COc1ccc(OC)c(NC(=S)N(CCc2c(C)[nH]c3ccccc23)Cc2cccs2)c1 | i | 0.46
Cc1cccc(CCNC(=O)C2CCCN(c3ncnc4c3nc3n4CCCCC3)C2)c1 (stereo not drawn) | i | -1.4
Cc1onc(-c2ccccc2)c1C(=O)NC(C)C1CCCO1 (stereo not drawn) | i | -1.1
c1csc(Cn2c(-c3cccs3)nc3ccccc32)c1 | i | 3.2
O=C(COC(=O)c1ccco1)NCC1CCCO1 (stereo not drawn) | i | -0.85
COc1ccc(/C=C2\SC(=S)N(CCCC(=O)NC3CCCC3)C2=O)cc1OC | i | -0.02
C=CCN1C(=O)CN=C1Nc1cc(C)cc(C)c1 | i | -0.41
O=C(c1ccc(F)cc1)c1ccc(N2CCCCC2)cc1 | i | 4.6
COc1ccc2c(=O)c3c(=O)n(-c4ccc(C)cc4)c(-c4ccccc4)nc3oc2c1 | i | 0.11
CN(C)C(=O)CN(c1ccc2c(c1)OCO2)S(C)(=O)=O | i | 0.02
COc1ccc(C2/C=C\CN(S(=O)(=O)c3cccs3)CC(=O)N2Cc2ccc(F)cc2)cc1 (stereo not drawn) | i | -0.1
Nc1c(S(=O)(=O)O)cc(NC(=O)c2ccccc2)c2c1C(=O)c1ccccc1C2=O | i | 2.4
C=CCc1cc(OC)ccc1OCC(O)CN1CCN(c2ccc(OC)cc2)CC1 (stereo not drawn) | i | 0.77
CCc1cc(=O)[nH]c(SCC(=O)Nc2cc(C)on2)n1 | i | -0.25

Gathered by group, those above with nitrogen in an aromatic ring.
SMILES | KCNQ2 inh | KCNQ2 inh baseline
O=C(CCc1nnc(CCCc2ccccc2)o1)NCCc1ccccc1 | i | 1.6
O=C(CCn1nnc2ccccc21)N1CCN(c2ccccc2)CC1 | i | -1.6
O=C(CSc1nnnn1C1CCCC1)Nc1ccccc1F | i | 2.1
COc1ccc(OC)c(NC(=S)N(CCc2c(C)[nH]c3ccccc23)Cc2cccs2)c1 | i | 0.46
Cc1cccc(CCNC(=O)C2CCCN(c3ncnc4c3nc3n4CCCCC3)C2)c1 (stereo not drawn) | i | -1.4
Cc1onc(-c2ccccc2)c1C(=O)NC(C)C1CCCO1 (stereo not drawn) | i | -1.1
c1csc(Cn2c(-c3cccs3)nc3ccccc32)c1 | i | 3.2
COc1ccc2c(=O)c3c(=O)n(-c4ccc(C)cc4)c(-c4ccccc4)nc3oc2c1 | i | 0.11
CCc1cc(=O)[nH]c(SCC(=O)Nc2cc(C)on2)n1 | i | -0.25

Next entries:
SMILES | KCNQ2 inh | KCNQ2 inh baseline
COc1ccc(C(CNC(=O)COc2ccccc2-c2ccccc2)N2CCOCC2)cc1 (stereo not drawn) | i | -1.5
Cc1nnc(N(C)C(=O)c2ccccn2)s1 | i | 0.05
CC(C)OCCCn1c(=N)c(S(=O)(=O)c2ccccc2)cc2c(=O)n3ccccc3nc21 | i | 0.14
Cc1ccc(S(=O)(=O)c2c(C)cc(C)nc2Oc2cccc(C(F)(F)F)c2)cc1 | i | 0.03
CCc1nnc(NC(=O)c2ccc(S(=O)(=O)N(CC)Cc3ccccc3)cc2)o1 | i | 2.5
C(=C\c1ccco1)/C1=NN(c2ccccc2)C(c2ccco2)C1 (stereo not drawn) | i | -0.69
Cc1c(C(=O)NC(=S)NCc2cccnc2)oc2ccccc12 | i | 1.6
COc1ccccc1OCC(=O)Nc1ccc(S(=O)(=O)N2CCOCC2)cc1 | i | 0.67
CCOC(=O)Cc1nnc(NC(=O)CSc2ccc(Cl)cc2)s1 | i | 1.1
COCCOC(=O)C1=C(C)N(c2ccccc2)C(=S)NC1c1ccccc1C(F)(F)F (stereo not drawn) | i | -0.76
CNc1nccc(-c2ccc(Cl)cc2)c1C#N | i | 0.49
S=C(NC1CCCC1)N1CCN(c2ccc(Cl)cc2)CC1 | i | 1
CCOC(=O)C1=C(C)N(c2ccccc2)C(=O)/C1=C\c1ccco1 | -6* | -2*
CCc1cc2ccc(OC)cc2nc1SCC(=O)Nc1cc(C)on1 | i | 0.03
Cc1nc(NC(=O)C(C)Oc2cccc(Cl)c2)sc1C(=O)N(C)C (stereo not drawn) | i | 0.34
O=C(CCNC(=O)c1ccco1)Nc1ccccc1 | i | 1.6
C=CCNC1=C(Cl)C(=O)N(Cc2ccccc2)C1=O | i | -1.5
COc1ccccc1NC(=O)CSc1nc2c(oc3ccccc32)c(=O)n1C | i | 0.52
Cc1ccc2c3c(c(SCC(=O)Nc4nonc4C)nc2c1)CCCC3 | i | -0.52
O=C(Cc1cccs1)Nc1nc2c(ccc3ccccc32)s1 | i | -1.7
COc1ccc(OC)c(CNC(=O)CCCc2cn(C)c3ccccc23)c1 | i | 0.42
CC1CN(c2sc(S(C)(=O)=O)nc2S(=O)(=O)c2ccc(Cl)cc2)CC(C)O1 (stereo not drawn) | i | -0.27
c1ccc(-c2noc(-c3ccc4ccccc4c3)n2)nc1 | i | -0.88
Oc1ccc(N=Nc2ccccc2)o1 | i | -0.83
COC(=O)c1ccc(NC(=O)Cn2nnc3ccccc32)cc1 | i | -0.16
CN1CCN(c2ccc(NC(=O)COc3cccc4ccccc34)cc2)CC1 | i | -0.46
S=c1[nH]nc(C2CCCCC2)n1/N=C/c1ccco1 | i | 0.27
Cc1ccc2c(Cl)cc(Cl)c(OCC(=O)N3CCCC3)c2n1 | i | 0.03
CC(=O)Nc1cccc(OCC(O)Cn2c(C)nc3ccccc32)c1 (stereo not drawn) | i | -0.67
COc1ccc(C(=O)NCC(c2ccco2)N2CCc3ccccc32)cc1OC (stereo not drawn) | i | -2.5
C/C(=N/NC(=O)c1ccccc1O)c1ccc(N2C(=O)C3CCCCC3C2=O)cc1 (stereo not drawn) | i | 0.22
COc1ccc(C(=O)N2CCCC(CCC(=O)NCc3ccc(F)c(F)c3)C2)o1 (stereo not drawn) | i | 0.23
CCOc1ccc(N(C(=O)/C=C/C(=O)Nc2cc(C)on2)C(C(=O)NC2CCCC2)c2ccccc2C)cc1 (stereo not drawn) | i | -0.48
COC(=O)C1=CN(CC2CCCO2)C=C(C(=O)OC)C1c1ccccc1C(F)(F)F (stereo not drawn) | i | -0.74
CC(C)=NOc1nc(NC(=O)NS(=O)(=O)c2ccccc2Cl)nc(N(C)C)n1 | i | -0.71
CN1CCc2nc3ccc(Cl)cc3c(-c3ccccc3Cl)c2C1 | i | -0.01
CC(C)n1c(CSCc2ccc(Cl)cc2Cl)n[nH]c1=S | i | -2
COc1cccc(C(=O)NCCS(=O)(=O)NCc2ccccn2)c1 | i | 0.24
COCCCN(C(=S)NC(=O)c1ccc(Br)cc1)c1c(N)n(Cc2ccccc2)c(=O)[nH]c1=O | i | 1.8
CSCCCN1CCCC(CO)(Cc2ccccc2F)C1 (stereo not drawn) | i | 0.31
O=C(c1cccc(-n2cccc2)c1)N1CCN(S(=O)(=O)c2ccc(F)cc2)CC1 | i | 0.83
Cc1ccccc1-n1c(C)nnc1SCc1nc2ccccc2s1 | i | 0.47
COc1ccccc1C(C#N)c1cccc(Cl)n1 (stereo not drawn) | i | 0.87
COc1ccc(C(=S)N2CCN(c3ccccc3Cl)CC2)cc1OC | i | 1.8
Cc1nc2sc(C(c3ccco3)N3CCN(c4ccc(F)cc4)CC3)c(O)n2n1 (stereo not drawn) | i | 1.1
O=S(=O)(c1ccccc1)c1nc(-c2ccco2)oc1NCc1ccco1 | i | 1.3
CC(CN1CCCCC1)OC(=O)C1c2ccccc2Oc2ccccc21 (stereo not drawn) | i | 1.4
C[n+]1cc[nH]c1SCC(=O)c1ccc(Cl)cc1 | i | 0.16
Cc1nn(C)c(Oc2cccc(Cl)c2)c1C#N | i | 0.02
O=C(NCCCN1CCCC1)c1ccc2c(c1)N(Cc1cccc(Cl)c1)C(=O)c1ccccc1S2=O (stereo not drawn) | i | -1.4
CCS(=O)(=O)Nc1cccc(C2=NN(S(=O)(=O)c3ccc(F)cc3)C(c3cccs3)C2)c1 (stereo not drawn) | i | 0.64
O=C(/C=C\Nc1ccc2c(c1)OCO2)c1ccc(Cl)s1 | i | 2.3
COc1cc(OC)cc(-c2cn[nH]c2N)c1 | i | 0.14
CCOc1cc(C(=O)N2CCOCC2)ccc1OCc1ccccc1 | i | -1.2
COc1ccc2c(c1)C(c1ccc([N+](=O)[O-])cc1)=NNC(c1ccco1)=N2 | i | 0.04
O=C(COC(=O)c1ccccc1NC(=O)c1ccccc1)c1ccc([N+](=O)[O-])cc1 | i | 0.92
O=C(Cc1nc2ccccc2[nH]1)c1ccc(Cl)cc1 | i | -1
COc1ccc(C(=O)NCC(=O)N/N=C/C(C)=C/c2ccco2)cc1OC | i | -0.56
O=C(OCc1ccccc1)c1cccc(-c2nnn(Cc3ccccc3)n2)c1 | i | -0.87
Cc1ccc(-n2nnnc2SCC(=O)Nc2ccc3c(c2)OCCO3)cc1C | i | 0.09
Continued.
SMILES | KCNQ2 inh | KCNQ2 inh baseline
O=C(Nc1ccncc1)Nc1ccncc1 | i | 1.3
Cc1ccc(NC(=O)CN(C)C(=O)C2COc3ccccc3O2)cc1 (stereo not drawn) | i | 0.79
COc1cccc(CNS(=O)(=O)c2ccc(N3CCCC3=O)cc2)c1 | i | 3.6
COc1ccc(OC)c(S(=O)(=O)Nc2cc(C(=O)O)ccc2N2CC3CC(C2)c2cccc(=O)n2C3)c1 (stereo not drawn) | i | 0.3
CCCCOc1ccccc1-c1cc(C(=O)O)[nH]n1 | i | 0.26
CN1CCN(C(=S)Nc2cc(S(=O)(=O)N3CCOCC3)ccc2Cl)CC1 | i | -0.5
COC(=O)C(Cc1c[nH]c2ccccc12)NC(=O)c1ccccc1Br (stereo not drawn) | i | -2.3
CC1CCN(CCOCCOc2ccc(Br)cc2Cl)CC1 | i | -0.94
O=C1NCCc2c1[nH]c1ccccc21 | i | 1.9
Nc1ncnc(Nc2ccc(F)c(Cl)c2)n1 | i | -1.1
CC(=O)c1ccc(NS(=O)(=O)Cc2ccccc2)cc1 | i | 2.4
c1coc(CN=C2NC(=NCc3ccco3)c3ccccc32)c1 | i | 3.1
Cn1nnnc1SCc1nc2scc(-c3ccc(Cl)cc3)c2c(=O)[nH]1 | i | 0.97
CC(C)Cc1nnc(NC(=O)c2cc(S(=O)(=O)N(C)C)ccc2N2CCCC2)s1 | i | 0.59
COc1ccc2c(c1)Cc1sc(NC(=O)c3ccco3)nc1-2 | i | 0.26
O=C1OCCN1c1c(-c2ccccc2)c(-c2cccs2)nc2c(-c3ccccc3)cccc12 | i | 0.08
Cc1ccc(C(C)C)c(OCC(=O)Nc2ccc(Cl)cn2)c1 | i | -1.4
COc1ccccc1OCCNc1cc(N2CCCCC2)ccc1[N+](=O)[O-] | i | -0.58
CCN1C(=O)/C(=C/C=C2/Sc3ccc4ccccc4c3N2CCO)SC1=S | i | -2.4
Cc1cc(C(=O)NNc2ccccc2F)no1 | i | -0.44
O=C(NN1C(=O)/C(=C\c2cccnc2)SC1=S)C(c1ccccc1)c1ccccc1 | i | 0.06
COc1ccc(CNC(=O)CN(Cc2ccc(F)cc2)C(=O)c2csnn2)cc1 | i | -0.54
Cc1ccc(Cn2ncc3c(NCCCN4CCOCC4)ncnc32)cc1 | i | -0.82
O=CN1CCN(S(=O)(=O)c2ccc(S(=O)(=O)NC3CCCCC3)cc2)CC1 | i | -0.63
COc1cccc(NC(=O)c2ccc(CN3CCc4ccccc4C3)cc2)c1 | i | 1.3
COc1cccc(N=C(N)N=C(N)N)c1 | i | 0.26
O=C(NCc1cccnc1)c1cccc(S(=O)(=O)N2CCCCC2)c1 | i | -1.6
CCNC(=O)N1c2ccc(OC)cc2C(C)=CC1(C)C | i | -0.02
CC(Sc1nnc(-c2ccco2)n1C)C(=O)N1C(C)CCCC1C (stereo not drawn) | i | 0.68
CCOC(=O)c1ccc(NC(=S)Nc2cccc(C)n2)cc1 | i | 0.05
Cc1ccccc1OCc1nc2ccccc2c(=O)n1NC(=O)c1ccco1 | i | 0.74
Cc1ccc(C(=O)CNc2ccc(Cl)cc2)cc1 | i | 1.3
COc1ccccc1/C=C1\SC(=S)N(CCC(=O)NNC(=O)c2ccccc2OC)C1=O | i | -0.75
CCOC(=O)CC1C(=O)NCCN1C(=O)c1c(Cl)cccc1Cl (stereo not drawn) | i | 1.4
Nc1c(NCCN2CCOCC2)c2ccccc2oc1=O | i | -0.36
CCCCOc1ccc(C(=O)NCC(=O)NCc2ccccn2)cc1 | i | 1.4
CCOCCCn1c(=O)c(NC(=O)c2ccc(OCC)cc2)c2n(c1=S)CCCCC2 | i | 1.8
CC(C)N(C(=O)CSc1nc2ccccc2n1Cc1ccccc1)C(C)C | i | 0.05
COc1ccccc1NC(=O)COc1ccc(Br)cc1CO | i | 0.66
